Bioassay records from PubChem BioAssay.
Myc binder – binders of human c-Myc, primary screen, biochemical, small molecule microarray, anti-His fluorescence; His-c-Myc binding; calls only; 17,000 tested, 1.5% active;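 active = spot fluorescence over background with P-value below 7% in all four replicate spots, showing protein binding; compounds were printed on slides so no solution concentration is given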;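 note: score is binary with 100 for all four spots passing and 0 otherwise; about 2 pmol printed per array spot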
Target sequence (P01106 whole entry, looked up): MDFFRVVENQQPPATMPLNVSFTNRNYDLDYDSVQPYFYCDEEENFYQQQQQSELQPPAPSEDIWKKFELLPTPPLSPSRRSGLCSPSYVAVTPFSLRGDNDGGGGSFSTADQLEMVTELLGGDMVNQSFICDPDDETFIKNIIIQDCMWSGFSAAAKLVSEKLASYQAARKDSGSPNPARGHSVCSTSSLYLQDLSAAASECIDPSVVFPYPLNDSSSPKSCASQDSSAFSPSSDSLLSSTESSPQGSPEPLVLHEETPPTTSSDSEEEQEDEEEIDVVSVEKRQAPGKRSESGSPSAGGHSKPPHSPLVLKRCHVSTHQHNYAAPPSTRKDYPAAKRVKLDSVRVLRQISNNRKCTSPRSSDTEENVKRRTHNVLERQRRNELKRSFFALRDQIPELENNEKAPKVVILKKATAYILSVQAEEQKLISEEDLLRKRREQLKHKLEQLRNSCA
STAT3 SMM – STAT3 binders, primary screen, biochemical, small molecule microarray, single point, set 2 | His-STAT3 binding, anti-His fluorescence | 17,000 tested, 0.2% active | calls only;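 active = compounds whose four printed spots each show fluorescence over background unusually high for their array block, chance value under 7%; compounds were printed on slides so no solution concentration is given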;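 note: about 2 pmol printed per array spot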
ID4 binder – binders of human ID4 protein, primary screen, biochemical, small molecule microarray, single point. calls only. 31,000 tested, 1.2% active. Flag-ID4 binding, fluorescence F/B. DNA-binding protein inhibitor ID-4 (Homo sapiens), P47928. AID 624137, 2012;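 active = spot signal over background at p below 0.07 in all four prints; compounds were printed on slides so no solution concentration is given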;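 note: a binder raises fluorescence above local background on the spot; about 2 pmol printed per array spot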
Target sequence (P47928 whole entry, looked up): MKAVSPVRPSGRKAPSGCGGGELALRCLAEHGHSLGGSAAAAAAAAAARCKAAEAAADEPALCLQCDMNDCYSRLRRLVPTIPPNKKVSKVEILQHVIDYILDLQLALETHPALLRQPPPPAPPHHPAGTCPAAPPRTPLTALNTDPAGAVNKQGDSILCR
p53 mut binder – binders of human mutant p53, primary screen, biochemical, small molecule microarray, anti-GST fluorescence. mutant tumor protein p53 (GST-tagged), Homo sapiens. calls only. small molecule microarray binding. 17,000 tested, 0.4% active. AID 624136, 2012;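 active = compounds whose four printed spots each glow above background more than chance allows, each with a p-value under 7%; compounds were printed on slides so no solution concentration is given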;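 note: about 2 pmol printed per array spot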
Calls only; i = inactive; / = no result given; + = active, no number. The list is partial (hit frequency here may not be typical).

No. | Structure | Myc binder | STAT3 SMM
1 | C[C@H](CO)N1C[C@H](C)[C@H](CN(C)C(=O)NC2CCCCC2)Oc2ccc(NC(=O)Nc3ccccc3)cc2CC1=O | i | i
2 | CC(Oc1ccccc1)C(=O)Nc1cccc(-c2nnc(-c3ccccc3)o2)c1 (configuration not stated) | i | i
3 | N#C[C@@H](O[C@@H]1O[C@H](CO)[C@@H](O)[C@H](O)[C@H]1O[C@@H]1O[C@H](CO)[C@@H](O)[C@H](O)[C@H]1O)c1ccccc1 | i | i
4 | C[C@@H]1CCCCO[C@@H](CN(C)C)[C@@H](C)CN([C@H](C)CO)C(=O)c2cc(NC(=O)Nc3ccc(F)cc3)ccc2O1 | i | i
5 | Cc1noc(C)c1NC(=O)Nc1ccc2c(c1)C(=O)N([C@@H](C)CO)C[C@H](C)[C@@H](CN(C)C(=O)CCCN(C)C)OCCCC[C@H](C)O2 | i | i
6 | O=C(CN1C(=O)c2ccccc2C1=O)Nc1cccc2cccnc12 | i | i
7 | O=C(O)c1[nH]c2ccccc2c1C(c1ccccc1)c1c(C(=O)O)[nH]c2ccccc12 | i | i
8 | Cc1noc(C)c1S(=O)(=O)Nc1ccc2c(c1)C(=O)N([C@H](C)CO)C[C@@H](C)[C@@H](CN(C)C(=O)Nc1ccc3c(c1)OCO3)O2 | i | i
9 | C[C@H](CO)N1C[C@H](C)[C@H](CN(C)Cc2ccc(Cl)c(Cl)c2)Oc2c(NS(=O)(=O)c3cn(C)cn3)cccc2C1=O | i | i
10 | COc1ccc(CN(C)C[C@@H]2Oc3c(NC(=O)NC4CCCCC4)cccc3C(=O)N([C@@H](C)CO)C[C@@H]2C)cc1 | i | i

No. | ID4 binder | p53 mut binder
1 | i | i
2 | i | i
3 | i | i
4 | i | i
5 | i | i
6 | i | i
7 | i | i
8 | i | i
9 | i | i
10 | i | i

(next part)
No. | Structure | Myc binder | STAT3 SMM
11 | C[C@@H]1CN([C@@H](C)CO)C(=O)c2cccc(NS(=O)(=O)c3ccc(Cl)cc3)c2O[C@@H]1CN(C)S(=O)(=O)c1ccc(Cl)cc1 | i | i
12 | COc1ccccc1NC(=O)C1=C(C)NC(SCC(N)=O)=C(C#N)C1c1ccccc1 (configuration not stated) | i | i
13 | C[C@@H]1CN([C@@H](C)CO)C(=O)Cc2cc(NC(=O)Cn3cnnn3)ccc2O[C@H]1CN(C)C(=O)Nc1ccccc1 | i | i
14 | COc1cc(CCC(=O)O)oc(=O)c1 | i | i
15 | C[C@H]1CCCCO[C@H](CN(C)C(=O)Cc2ccccc2)[C@@H](C)CN([C@@H](C)CO)C(=O)c2cc(NC(=O)Nc3ccc4c(c3)OCO4)ccc2O1 | i | i
16 | CCCCn1c(=O)c2[nH]c(C34CC5CC(CC3C5)C4)nc2n(CCCO)c1=O | i | i
17 | C[C@H]1CN([C@@H](C)CO)C(=O)Cc2cc(NC(=O)Nc3ccc(F)cc3)ccc2O[C@H]1CN(C)S(=O)(=O)c1cccs1 | i | i
18 | CCOC(=O)c1c(C)n(C)c2ccc(OC(=O)CN3C(=O)c4ccccc4C3=O)cc12 | i | i
19 | C[C@@H]1CCCCO[C@@H](CN(C)C(=O)c2ccccc2)[C@@H](C)CN([C@@H](C)CO)C(=O)c2cc(NC(=O)Nc3ccc4c(c3)OCO4)ccc2O1 | i | i
20 | C[C@H]1CN([C@@H](C)CO)C(=O)c2cc(NS(C)(=O)=O)ccc2O[C@H]1CN(C)C(=O)Nc1ccc2c(c1)OCO2 | i | i

No. | ID4 binder | p53 mut binder
11 | / | i
12 | i | i
13 | i | i
14 | / | i
15 | / | i
16 | i | i
17 | / | i
18 | i | i
19 | i | i
20 | i | i

The results go on.
No. | Structure | Myc binder | STAT3 SMM
21 | C[C@H]1CN([C@@H](C)CO)C(=O)c2cc(NC(=O)c3ccncc3)ccc2O[C@@H]1CN(C)C(=O)NC1CCCCC1 | i | i
22 | CCCC1=C(C(=O)OCC)C(c2cccnc2)n2nc(C)nc2N1 (configuration not stated) | i | i
23 | Cc1cccc(C(=O)NCc2n[nH]c(=S)n2-c2ccccc2)c1 | i | i
24 | Cc1noc(C)c1NC(=O)N(C)C[C@H]1Oc2ccc(NC(=O)CCCN(C)C)cc2CC(=O)N([C@@H](C)CO)C[C@@H]1C | i | i
25 | CC(C)(C)[C@H]1C=C(C(=O)Nc2ccccc2)O[C@@H](OCc2ccc(CO)cc2)C1 | i | i
26 | COc1ccc(-c2coc3cc(OC(C)=O)cc(OC(C)=O)c3c2=O)cc1 | i | i
27 | COc1ccc(OC)c(NC(=O)C2=C(C)NC(=S)NC2c2ccc(OC)cc2OC)c1 (configuration not stated) | i | i
28 | Cn1ccnc1SCC(=O)Nc1ccc2c(c1)COC2=O | i | i
29 | C[C@@H]1CN([C@H](C)CO)C(=O)Cc2cc(NC(=O)c3ccncc3)ccc2O[C@@H]1CN(C)C(=O)Nc1ccccc1 | i | i
30 | O=C1O[C@@H](c2ccccc2)[C@@H](c2ccccc2)N2[C@@H](c3ccc(OCCO)cc3)[C@]3(C(=O)Nc4ccc(C#CCCO)cc43)[C@@H](C(=O)O)[C@H]12 | i | i

No. | ID4 binder | p53 mut binder
21 | i | i
22 | i | i
23 | + | i
24 | i | i
25 | i | i
26 | / | i
27 | i | i
28 | i | i
29 | i | i
30 | i | i

Next part; it opens with the five that closed the last part.
No. | Structure | Myc binder | STAT3 SMM
26 | COc1ccc(-c2coc3cc(OC(C)=O)cc(OC(C)=O)c3c2=O)cc1 | i | i
27 | COc1ccc(OC)c(NC(=O)C2=C(C)NC(=S)NC2c2ccc(OC)cc2OC)c1 (configuration not stated) | i | i
28 | Cn1ccnc1SCC(=O)Nc1ccc2c(c1)COC2=O | i | i
29 | C[C@@H]1CN([C@H](C)CO)C(=O)Cc2cc(NC(=O)c3ccncc3)ccc2O[C@@H]1CN(C)C(=O)Nc1ccccc1 | i | i
30 | O=C1O[C@@H](c2ccccc2)[C@@H](c2ccccc2)N2[C@@H](c3ccc(OCCO)cc3)[C@]3(C(=O)Nc4ccc(C#CCCO)cc43)[C@@H](C(=O)O)[C@H]12 | i | i
31 | COc1ccc(CNc2nc3ccccc3n2C)c(O)c1 | i | i
32 | COc1ccc(-c2nc(C(=O)N3CCN(C)CC3)sc2-c2ccc(OC)cc2)cc1 | i | i
33 | C[C@H](CO)N1C[C@H](C)[C@@H](CN(C)C(=O)Nc2ccc(F)cc2)Oc2ccc(NS(C)(=O)=O)cc2C1=O | i | i
34 | Cc1noc(C)c1S(=O)(=O)N(C)C[C@@H]1Oc2ccc(NC(=O)C3CCCCC3)cc2CC(=O)N([C@@H](C)CO)C[C@H]1C | i | i
35 | CNC[C@H]1OCCCC[C@H](C)Oc2ccc(NC(=O)Nc3ccccc3)cc2C(=O)N([C@H](C)CO)C[C@@H]1C | i | i
36 | C[C@H]1CN([C@@H](C)CO)C(=O)CCCn2cc(nn2)CO[C@H]1CN(C)C(=O)Cc1ccccc1 | i | i
37 | C[C@@H]1O[C@@H](OCC2OC(OC3C(OC4C(Oc5c(-c6ccc(O)c(O)c6)oc6cc(O)cc(O)c6c5=O)OC(CO)C(O)C4O)OC(CO)C(O)C3O)C(O)C(O)C2O)[C@H](O)[C@H](O)[C@H]1O (some centres not stated) | i | i
38 | CCN(CC)c1ccc(/C=N/NC(=O)c2ccc(O)cc2)cc1 | i | i
39 | CC(C)NC(=O)N(C)C[C@H]1Oc2ccc(NC(=O)C3CC3)cc2C(=O)N([C@H](C)CO)C[C@@H]1C | i | i
40 | C[C@@H]1CN([C@@H](C)CO)C(=O)c2cc(NC(=O)c3ccncc3)ccc2O[C@@H](C)CCCCO[C@H]1CN(C)C(=O)CCCN(C)C | i | i

No. | ID4 binder | p53 mut binder
26 | / | i
27 | i | i
28 | i | i
29 | i | i
30 | i | i
31 | i | i
32 | i | i
33 | i | i
34 | i | i
35 | i | i
36 | i | i
37 | i | i
38 | i | i
39 | i | i
40 | i | i

Other records follow:
No. | Structure | Myc binder | STAT3 SMM
41 | O=C(Cn1c(=O)oc2ccccc21)Nc1sc2c(c1C(=O)O)CCCC2 | i | i
42 | COc1ccc(CN(C)C[C@@H]2Oc3c(NC(=O)NC(C)C)cccc3C(=O)N([C@@H](C)CO)C[C@@H]2C)cc1 | i | i
43 | Cc1noc(C)c1NC(=O)N(C)C[C@H]1Oc2c(NC(=O)NC3CCCCC3)cccc2C(=O)N([C@H](C)CO)C[C@@H]1C | i | i
44 | C[C@H](CO)N1C[C@H](C)[C@H](CN(C)C(=O)C2CCCCC2)OCCCC[C@H](C)Oc2ccc(NC(=O)c3ccncc3)cc2C1=O | i | i
45 | O=C(CSC1CC(=O)N(c2ccc(Cl)cc2)C1=O)Nc1ccc(Cl)cc1 (configuration not stated) | i | i
46 | C[C@H]1CN([C@@H](C)CO)C(=O)Cc2cc(NC(=O)C3CC3)ccc2O[C@@H]1CN(C)Cc1ccc2c(c1)OCO2 | i | i
47 | CCSc1nc2ccccc2n1Cc1nc(N)nc(N(C)C)n1 | i | i
48 | CC(=O)Nc1ccccc1NC(=O)CN(C)S(=O)(=O)c1ccc(C)cc1 | i | i
49 | CCOC(=O)c1c(C)n(C)c2ccc(OCC(N)=O)cc12 | i | i
50 | CC(C)(C)OC(=O)CC[C@]12N=C(c3ccc(OCCCO)cc3)O[C@H]1c1ccccc1CN(Cc1ccccc1)C2=O | i | i

No. | ID4 binder | p53 mut binder
41 | + | i
42 | i | i
43 | i | i
44 | i | i
45 | i | i
46 | i | i
47 | i | i
48 | i | i
49 | i | i
50 | i | i

(continued)
No. | Structure | Myc binder | STAT3 SMM
51 | CNC[C@@H]1Oc2c(NC(=O)Nc3ccccc3)cccc2C(=O)N([C@@H](C)CO)C[C@@H]1C | i | i
52 | C[C@H]1CCCCO[C@H](CN(C)C(=O)CCCN(C)C)[C@@H](C)CN([C@@H](C)CO)C(=O)c2cc(N(C)C)ccc2O1 | i | i
53 | C[C@@H]1CCCCO[C@@H](CN(C)C(=O)CCCN(C)C)[C@H](C)CN([C@H](C)CO)C(=O)c2cc(NC(=O)CCCN(C)C)ccc2O1 | i | i
54 | COc1cc(OC)c(O[C@@H]2O[C@H](COC(=O)c3cc(O)c(O)c(O)c3)[C@@H](O)[C@H](O)[C@H]2O)c(OC)c1 | i | i
55 | C[C@H](CO)N1C[C@H](C)[C@@H](CN(C)Cc2ccc(Cl)c(Cl)c2)Oc2ccc(NC(=O)Cn3cnnn3)cc2C1=O | i | i
56 | COc1cccc(OCc2nc(-c3ccccc3)no2)c1 | i | i
57 | O=C(O)c1ccccc1Nc1ccccc1 | i | i
58 | C[C@@H]1CCCCO[C@@H](CN(C)S(=O)(=O)c2ccccc2)[C@H](C)CN([C@@H](C)CO)C(=O)c2cc(NC(=O)CCCN(C)C)ccc2O1 | i | i
59 | COC(/C=C/C(OC(C)=O)C(C)OC(C)=O)C(O)C1CC=CC(=O)O1 (configuration not stated) | i | i
60 | C[C@@H]1CCCCO[C@H](CN(C)C(=O)c2ccncc2)[C@@H](C)CN([C@@H](C)CO)C(=O)c2cc(N(C)C)ccc2O1 | i | i

No. | ID4 binder | p53 mut binder
51 | i | i
52 | i | i
53 | i | i
54 | i | i
55 | i | i
56 | i | i
57 | i | i
58 | i | i
59 | i | i
60 | i | i

Continuation:
No. | Structure | Myc binder | STAT3 SMM
61 | CC(=O)CCCC1Cc2cccc(O)c2C(=O)O1 (configuration not stated) | i | i
62 | C[C@H]1CCCCO[C@@H](CN(C)Cc2ccncc2)[C@@H](C)CN([C@@H](C)CO)C(=O)c2cc(NC(=O)Cc3ccccc3)ccc2O1 | i | i
63 | CNC[C@H]1Oc2c(NS(=O)(=O)c3cccs3)cccc2C(=O)N([C@@H](C)CO)C[C@H]1C | i | i
64 | C[C@@H]1CCCCO[C@@H](CN(C)C(=O)Nc2ccccc2)[C@@H](C)CN([C@H](C)CO)C(=O)c2cc(NC(=O)Nc3ccc(F)cc3)ccc2O1 | i | i
65 | C[C@H](CO)N1C[C@H](C)[C@@H](CN(C)Cc2ccccc2)OCCCC[C@H](C)Oc2ccc(NC(=O)c3ccccc3)cc2C1=O | i | i
66 | COc1ccc(OCC(=O)Nc2ccccc2OC(F)F)cc1 | i | i
67 | C[C@@H]1CN([C@@H](C)CO)C(=O)c2cc(NC(=O)c3ccncc3)ccc2O[C@H]1CN(C)C(=O)NC1CCCCC1 | i | i
68 | Cc1ccc(-c2nc3ccccc3s2)cc1NC(=O)COc1ccccc1 | i | i
69 | CCc1cccc2c(C#N)cn(CC(=O)NCC3CCCO3)c12 (configuration not stated) | i | i
70 | C[C@@H]1CN([C@@H](C)CO)C(=O)c2cccc(NC(=O)C3CCCCC3)c2O[C@@H]1CN(C)S(=O)(=O)c1ccc(F)cc1 | i | i

No. | ID4 binder | p53 mut binder
61 | i | i
62 | i | i
63 | i | i
64 | / | i
65 | / | i
66 | i | i
67 | i | i
68 | i | i
69 | i | i
70 | / | i

(more compounds)
No. | Structure | Myc binder | STAT3 SMM
71 | O=C(NC(=S)Nc1ccc(S(=O)(=O)Nc2nccs2)cc1)c1ccc(Br)o1 | i | i
72 | COc1cccc(NC(=O)CSc2nc(N)c(-c3ccccc3)c(=O)[nH]2)c1 | i | i
73 | C[C@@H]1CN([C@@H](C)CO)C(=O)c2cc(NC(=O)Cc3cn(C)c4ccccc34)ccc2O[C@H]1CN(C)C(=O)Nc1ccc(F)cc1 | i | i
74 | Cc1ccc(N(C(C)C(=O)Nc2ccc(Oc3ccccc3)cc2)S(C)(=O)=O)cc1 (configuration not stated) | i | i

No. | ID4 binder | p53 mut binder
71 | i | i
72 | i | i
73 | i | i
74 | i | i
